Beta apoptosis: inhibitors of cytokine-induced beta cell apoptosis, primary screen, luminescence. protection from apoptosis, % (no concentration beside the values). INS-1E cytokine-induced death, ATP luminescence, 48 h; percent of positive-control rescue, neutral wells zero. 0.8% of 300,000 active;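 active means all replicates at 75% or more, or half of them and the mean; inconclusive means half reach 75% but not the mean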;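 further: 0% = cytokine-treated negative control wells and 100% = positive control rescue; higher means more ATP so stronger rescue from cytokine killing; wells of about 40 µL received 100 nL stock; the first replicate is given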
RanGTP-Imp inh: inhibitors of RanGTP-importin-beta interaction, primary screen, biochemical, FRET, CFP-Ran, YFP-importin-beta, homogeneous | inhibition, % (test concentration not listed) | cell-free CFP-Ran/YFP-importin-beta FRET ratio | 1.1% of 300,000 active | AID 2216, 2009 | Ran GTPase (GTP-bound) - importin-beta complex;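 active means most replicates above 15%; inconclusive means exactly half above 15%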;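 further: 0% = DMSO wells and 100% = Ran loaded with GDP instead of GTP; wells of about 40 µL received 100 nL stock; the first replicate is given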
Vif A3G: inhibitors of Vif binding to APOBEC3G peptide, primary screen, biochemical, TR-FRET, GST-Vif 1-94, biotin-A3G peptide, dose response retest (AID 1117319); inhibition, %; hits with a dose series show IC50 in µM; Virion infectivity factor (Human immunodeficiency virus type 1 group M subtype B (isolate …; 0.57% of 260,000 active; TR-FRET GST-Vif / biotin-A3G peptide binding; higher % means a stronger effect; test concentration not given here; strong numbers were not always called active;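 active means above the screen mean plus three standard deviations and confirmed in dose response; inconclusive means results disagree or hit not tested in dose response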;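 further: Vif residues 1-94 fused to GST binding biotinylated APOBEC3G peptide 110-148; 0% = full assay without inhibitor and 100% = GST in place of GST-Vif; retest series ran down from 100 µM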
Calb FLC: C. albicans growth inhibition with fluconazole, primary screen, CaCi-2 strain, Alamar Blue fluorescence; 0.57% of 300,000 active; AID 1979, 2009; growth inhibition, % (concentration not given with the values); C. albicans CaCi-2 (fluconazole-resistant clinical isolate) + fluconazole, 48 h;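 active means most replicates above 75%; inconclusive means exactly half above 75%; inactive means most below 75%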;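 further: all wells also contain fluconazole at 8 µg/ml as a sub-toxic cotreatment; 0% = median of DMSO wells and 100% = median of geldanamycin control wells; wells of about 8 µL received 7.5 nL stock; the first replicate is given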
T cruzi inh: inhibitors of intracellular T. cruzi growth, primary screen, luminescence, NIH3T3 host cells; T. cruzi beta-gal in NIH3T3, 90 h; 1.4% of 300,000 active; AID 1885, 2009; inhibition, % (no concentration beside the values);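 active means mean inhibition across valid replicates above about 55%, limit read from the data; inconclusive means mean below that limit but half or more replicates reach it; inactive means mean below it, under half of replicates reach it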;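 further: signal also drops with host cell toxicity which is not excluded here; 0% = plate median of DMSO wells and 100% = zero luminescence signal; higher percent means less beta-gal luminescence so fewer parasites; stock transfer was 50 nL into about 50 µL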
A1 inh: caspase 3/7 activation in MEF A1-2A-BIM cells, primary screen, A1 inhibitor project, cell-based, luminescence, HTS. Caspase-Glo 3/7 luminescence, 3 h; percent of clofoctol response, vehicle zero. 0.066% of 330,000 active. caspase activation, % (test concentration not listed);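 active means over half of replicate activation scores above 10%, or exactly half above 10 with the replicate mean above 10; inconclusive means replicate mean below 10 yet half the replicates above 10; inactive means over half of replicates below 10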;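 further: wells of about 30 µL received 50 nL stock; many hits fall short of the cut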
MLL AF4-AF9 inh: inhibitors of AF4 peptide binding to AF9, primary screen, biochemical, AlphaScreen, biotin-AF4 peptide, FLAG-AF9, single point; Protein AF-9 (Homo sapiens), P42568; inhibition, % at 10 µM; 0.47% of 350,000 active; AID 651704, 2012;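 active means every replicate reaching a set inhibition limit, whatever the replicate mean, cut at about 25% in these data; inconclusive means mean inhibition reaches that limit but some replicates miss it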;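 further: 0% = plate neutral control median and 100% = total signal loss; the record names both 10 and 1 µM as test concentration; the first replicate is given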
LANA-H2B inh: blockers of LANA interaction with H2A/H2B – biochemical, FP readout, HTS, primary screen. Protein LANA1 (Human herpesvirus 8 type P (isolate GK18)), Q9QR71. cell-free LANA-H2A/H2B peptide, fluorescence polarization. inhibition, % (concentration not given with the values). 0.6% of 320,000 active. AID 2629, 2010; in the data active means inhibition mostly above about 10%, no sharp cut-off; inactive means mostly below about 6.7%;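 further: stock transfer was 7.5 nL into about 10 µL; 0% = median of vehicle wells and 100% = median of positive control wells; one replicate is shown; the record names a cut of 25% in any replicate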
Target sequence (Q9QR71 whole entry, looked up): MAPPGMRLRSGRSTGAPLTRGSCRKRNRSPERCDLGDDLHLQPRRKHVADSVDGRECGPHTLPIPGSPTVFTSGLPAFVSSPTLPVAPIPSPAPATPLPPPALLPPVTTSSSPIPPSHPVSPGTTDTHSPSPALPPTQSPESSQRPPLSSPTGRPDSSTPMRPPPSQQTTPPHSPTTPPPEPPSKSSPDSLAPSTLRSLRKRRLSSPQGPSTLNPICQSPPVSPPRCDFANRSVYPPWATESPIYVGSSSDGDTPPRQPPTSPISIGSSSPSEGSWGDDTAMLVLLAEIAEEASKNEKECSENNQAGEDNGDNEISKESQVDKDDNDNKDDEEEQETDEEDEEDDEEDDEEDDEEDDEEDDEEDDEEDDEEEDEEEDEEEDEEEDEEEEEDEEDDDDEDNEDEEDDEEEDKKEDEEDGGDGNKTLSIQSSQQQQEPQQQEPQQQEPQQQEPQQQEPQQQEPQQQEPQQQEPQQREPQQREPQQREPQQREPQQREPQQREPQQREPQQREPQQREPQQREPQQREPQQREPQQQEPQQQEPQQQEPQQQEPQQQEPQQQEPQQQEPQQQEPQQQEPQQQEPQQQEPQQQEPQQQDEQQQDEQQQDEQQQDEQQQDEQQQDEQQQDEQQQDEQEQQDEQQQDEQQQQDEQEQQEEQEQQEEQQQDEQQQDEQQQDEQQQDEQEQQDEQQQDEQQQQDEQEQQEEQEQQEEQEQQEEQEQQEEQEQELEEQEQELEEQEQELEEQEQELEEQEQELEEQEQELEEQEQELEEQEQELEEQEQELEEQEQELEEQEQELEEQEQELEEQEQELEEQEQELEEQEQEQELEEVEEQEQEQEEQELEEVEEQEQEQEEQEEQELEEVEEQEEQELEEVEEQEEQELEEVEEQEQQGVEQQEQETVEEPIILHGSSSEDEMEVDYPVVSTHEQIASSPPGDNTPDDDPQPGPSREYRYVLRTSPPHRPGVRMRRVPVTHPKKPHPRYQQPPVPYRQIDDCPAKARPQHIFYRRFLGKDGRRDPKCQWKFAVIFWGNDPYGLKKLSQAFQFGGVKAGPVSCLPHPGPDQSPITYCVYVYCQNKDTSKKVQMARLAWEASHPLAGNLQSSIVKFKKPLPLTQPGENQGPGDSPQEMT
* = called active by the depositor; ? = inconclusive; . = no result given; & = joins results of further samples.

The first 2 compounds, ahead of the listing:
SMILES	Beta apoptosis	RanGTP-Imp inh	Vif A3G	Calb FLC	T cruzi inh	A1 inh	MLL AF4-AF9 inh	LANA-H2B inh
O=C(NCCN1CCCC1)C(c1ccccc1)c1ccccc1	.	-0.6	-4%	-15	0	2.2	1.3	-4.2
CC(=O)Nc1c2c(nn1-c1cccc(Cl)c1)CS(=O)C2 (stereo not drawn)	.	7.5	14%	0	0	0.6	-1.4	4.4

The whole of this part, from the start:
SMILES	Beta apoptosis	RanGTP-Imp inh	Vif A3G	Calb FLC	T cruzi inh	A1 inh	MLL AF4-AF9 inh	LANA-H2B inh
O=C(NCCN1CCCC1)C(c1ccccc1)c1ccccc1	.	-0.6	-4%	-15	0	2.2	1.3	-4.2
CC(=O)Nc1c2c(nn1-c1cccc(Cl)c1)CS(=O)C2 (stereo not drawn)	.	7.5	14%	0	0	0.6	-1.4	4.4
COC(=O)c1oc2ccc(Cl)cc2c1-n1cccc1	.	3.9	0%	-17	-2	0.3	.	-0.6
COc1ccc(S(=O)(=O)N2CCN(C(=S)Nc3ccc(S(N)(=O)=O)cc3)CC2)cc1	-2	5.5	.	-5	4	0.8	1.9	6.6
Cc1noc(C)c1S(=O)(=O)N(C)C[C@H]1Oc2ccc(NC(=O)CCC(F)(F)F)cc2C(=O)N([C@H](C)CO)C[C@@H]1C	-3	.	.	.	.	3.2	-2.2	3.9
O=C(O)CCCNC(=O)C(c1ccccc1)c1ccccc1	-1&-4	1.2&-0.1	-9%&6%	-15&-2	-1&-10	1.4&-0.2	3.2	0.0&-2.1
O=C(NCc1nnc(SCc2ccc(F)cc2)n1-c1ccc(F)cc1)C12CC3CC(CC(C3)C1)C2	4	1.7	.	34	39	0.1	5.8	-5.8
CCOCCCNC(=O)C(NC(=O)c1cnccn1)c1ccc(OC)cc1 (stereo not drawn)	-3	?	4%	-7	-10	0.4	.	-1.6
O=C(/C=C/c1ccccc1)Oc1cccc(C(=S)N2CCOCC2)c1	2	0.7	6%	-7	-19	0.0	14	1.2
CCOc1ccc(-c2nnc3sc(COc4ccc(Cl)cc4)nn23)cc1	3	.	13%	-27	.	-0.5	.	3.8
N#CCSc1nc2scc(-c3cccs3)c2c(=O)n1CCc1ccccc1	14	?	-9%	-4	40	-0.7	.	7.7
Cc1ccc(CC2SC(=O)NC2=O)cc1Cl (stereo not drawn)	-8	-1.9	11%	-9	-7	0.6	.	4.9
COC(=O)CNC(c1ccccc1)c1cc(C)ccc1NC(=O)c1cccc(Cl)c1 (stereo not drawn)	7	0.1	-9%	8	-3	-0.1	.	-5.5
COc1ccc2ccccc2c1/C=N\NC(=O)c1cccnc1	.	1.8	.	4	-5	-0.1	-1.7	2.1
CN(C)S(=O)(=O)N(CC(=O)Nc1ccc(S(=O)(=O)N2CCCC2)cc1)c1ccccc1	3	-0.9	0%	0	2	-1.4	-5.9	-0.4
O=C(COc1ccc(F)cc1)Nc1nnc(S(=O)(=O)N2CCCC2)s1	-4	-10	.	-14	1	-0.6	0.7	2.6
Cc1ccc(Nc2nnc(SC/C(O)=C(\C#N)c3nc4ccccc4[nH]3)s2)c(C)c1	-6	13	.	-2	4	0.4	.	-6.9
O=C(NCCCN1CCCC1=O)C1CCCO1 (stereo not drawn)	.	-3.3	-4%	-17	-8	0.0	0.2	-1.1
COc1cc2c(cc1NC(=O)CSc1cccc[n+]1[O-])oc1ccccc12	-7	0.2	1%	0	-14	0.5	-1.4	5.5
O=C(O)C1C2C=CC(C2)C1C(=O)NCc1cccs1 (stereo not drawn)	-8	-2.3	.	-2	-18	0.3	0.7	3.8
Cc1coc2c1C(=O)C(=O)c1c-2ccc2c(C)cccc12	0	?	.	-10	-21	0.0	.	-6.7
Cc1cc(C(=O)OCC(=O)Nc2ccccc2[N+](=O)[O-])c2ccccc2n1	2	3.1	7%	15	-19	0.6	-31	0.9
CCn1cc(C(=O)NCCCOC(C)C)c(=O)c2cc(S(=O)(=O)N3CCC(C)CC3)ccc21	3	9.1	.	8	9	-0.5	-0.2	-1.2
COC(=O)CCCC1=CC2=CC(=O)C(C)(OC(=O)c3cccs3)C(=O)C2=CN1CCc1c[nH]c2ccccc12 (stereo not drawn)	-6	-0.2	.	8	-9	0.3	3.8	0.3
Cc1ccc(CNC(=O)CCn2nc(-c3ccc(Cl)cc3)ccc2=O)cc1	1	?	5%	0	10	-0.5	.	-5.8

The list goes on:
SMILES	Beta apoptosis	RanGTP-Imp inh	Vif A3G	Calb FLC	T cruzi inh	A1 inh	MLL AF4-AF9 inh	LANA-H2B inh
Cc1cn2c(-c3ccncc3)nnc2s1	-3	1.9	-4%	-1	0	-0.3	.	1.4
Cc1nc(SCC(=O)N(CC(C)C)C2CCS(=O)(=O)C2)c2c(C)c(C)sc2n1 (stereo not drawn)	-5	.	-2%	.	.	-1.4	-1.8	-0.3
COc1cc(OC)nc(NC(=O)COC(=O)c2cccc(Cl)c2)n1	-1	4.2	10%	-3	-10	-0.3	-1.7	2.8
Cc1cc(C)c(C)c(S(=O)(=O)Nc2ccc(C(N)=O)cc2)c1C	.	-2.1	8%	7	-9	-0.5	-2.3	-0.6
CN(c1nc2ccccc2[nH]c1=O)C1CCCCC1	22	?	.	4	.	0.8	0.1	-1.5
COCCNC(=O)Cn1cnc2sc(C)c(S(=O)(=O)N3CCN(c4ccccc4OC)CC3)c2c1=O	-9	-2.0	.	5	-2	0.9	-0.6	-7.4
O=C(NCc1ccccc1F)C1CCCN(C(=O)Nc2ccccc2)C1 (stereo not drawn)	0	0.5	-7%	-7	9	0.1	-8.0	4.8
CCN(CC)S(=O)(=O)c1ccc(N2CCOCC2)c(NC(=O)c2c3c(nc4ccccc24)CCC3)c1	-2	-3.2	23%	7	8	0.0	.	-3.3
CCN(CC)C(=O)c1cccc(NC(=O)c2ccccc2OCc2c(C)noc2C)c1	-2	.	-3%	.	.	0.7	-1.3	-5.6
CCc1ccc(S(=O)(=O)N2CCCC(N3CCN(c4ccc(OC)cc4)CC3)C2)cc1 (stereo not drawn)	-9	-1.0	.	-10	6	1.1	14	-5.5
O=C(CCc1nc2sc3c(c2c(=O)[nH]1)CCCC3)Nc1cccc(Cl)c1	-20	3.7	-48%	23	-2	0.1	-33	-1.7
OC(CCN1CCOCC1)c1ccccc1 (stereo not drawn)	-3	?	-6%	12	-14	0.2	-3.3	0.9
CC(C)CN(Cc1c(O)ccc2c(=O)c(-c3ccccc3)coc12)CC(C)C	.	0.2	.	-7	11	0.2	-0.3	12
O=C(CCc1nc(-c2ccccc2F)no1)NC1CCN(Cc2ccccc2)CC1	0	-3.8	25%	-5	21	-1.1	.	-7.4
C=C1CCN([C@@H](Cc2ccccc2)C(=O)N2CCOCC2)S(=O)(=O)c2ccccc21	-2	-1.6	.	0	-5	-1.7	.	-4.5
CS(=O)(=O)Nc1ccc(S(=O)(=O)N2CCOCC2)cc1	-3	-6.6	18%	4	-10	0.6	.	1.5
CCOC(=O)c1c(CSc2ccccc2)n(C)c2ccc(O)cc12	-4	5.4	6%	-1	11	0.8	0.5	-12
COc1[nH]c(/N=C/c2ccccc2)c(C#N)c1C#N	-1	-3.8	8%	-10	-4	-0.9	.	44*
CCOc1ccc(/C=C(/NC(=O)c2ccccc2)C(=O)NCCC(=O)O)cc1	-4	-4.8	9%	3	-13	-0.2	0.1	5.6
COc1ccc(C(CNC(=O)COc2ccc(C)c(C)c2)N2CCCCC2)cc1 (stereo not drawn)	.	-0.6	-5%	-9	16	.	3.2	.
COc1cc(/C=C/C(=O)OCC(=O)N2CCCc3ccccc32)ccc1OC(F)F	1	-3.4	6%	9	11	0.2	-10	-5.8
Cc1cccc(-n2ncc3c2CCCC3NC(=O)CCc2cccnc2)c1C (stereo not drawn)	1	2.2	.	-1	-12	-0.4	0.6	5.3
CSCC[C@@H](C(=O)NCCCCCCCCCCC(=O)N1CCN(C(=O)OC(C)(C)C)CC1)n1cc(CCO)nn1	-1	.	.	.	.	0.8	-0.6	-1.2
Cc1oc2c(c(C)cc3oc(=O)c(CC(=O)NCC(=O)NCC(=O)NCC(C)O)c(C)c32)c1C (stereo not drawn)	4	-1.9	-7%	-5	1	-0.2	-1.3	-2.3
Cc1noc(NS(=O)(=O)c2ccc(NC(=O)c3nn(-c4ccc(F)cc4)ccc3=O)cc2)c1C	2	5.9	.	16	13	0.3	-0.2	-0.6

Next section.
SMILES	Beta apoptosis	RanGTP-Imp inh	Vif A3G	Calb FLC	T cruzi inh	A1 inh	MLL AF4-AF9 inh	LANA-H2B inh
CCOc1cccc(NC(=O)C(Cc2cccs2)c2nn[nH]n2)c1 (stereo not drawn)	1	4.1	15%	-31	-5	-1.0	.	2.4
COc1ccc(C(CNC(=O)c2ccc3c(c2)OCCO3)N(C)C)cc1 (stereo not drawn)	-2	-0.5	.	-24	7	-0.3	2.4	-7.6
CCOc1cc(/C=N/NC(=O)COc2ccc(Cl)cc2)ccc1OS(=O)(=O)c1ccccc1	4	-1.1	3%	-4	40	-0.3	.	-2.0
O=C(Nc1ccc(F)c(Cl)c1)C1CCN(c2ncnc3c2nc2n3CCCCC2)CC1	-10	-3.2	.	-43	8	-1.0	-4.1	5.4
Cc1ccc2cc(COC(=O)c3cccc([N+](=O)[O-])c3)c(=O)[nH]c2c1	-8	6.7	-1%	7	0	0.6	2.7	2.7
CCOC(=O)c1[nH]c2ccccc2c1NC(=S)Nc1cccc(C)c1C	9	-6.1	-3%	-23	-16	-0.6	7.1	-1.9
O=C(NNC(=S)NCC1CCCO1)c1ccc(S(=O)(=O)N2CCOCC2)cc1 (stereo not drawn)	-1	-0.8	9%	-6	-11	1.1	1.1	0.9
CCOC(=O)c1cc(-c2ccccc2)n(CCC(=O)NC(C)CC)c1C (stereo not drawn)	-3	2.9	-3%	-10	5	0.1	.	1.0
COc1ccc(-n2c(-c3ccc(Br)cc3)c[n+]3c2SC(C)C3)cc1 (stereo not drawn)	.	-2.5	-7%	88*	90*	0.3	0.5	-6.8
COc1ccc(CNC(=O)C/C(C)=N/NC(=O)COc2cccc(C)c2)cc1	-3	-2.0	-13%	-6	-12	0.0	-0.7	-2.4
Cc1ccc(NC(=O)Cn2ncn3c(cc4ccccc43)c2=O)cc1F	-4	11	-11%	-2	38	0.8	1.1	-0.1
Cc1cc(-c2ccc(S(=O)(=O)N3CCN(c4cccc(C)c4C)CC3)s2)on1	-3	2.0	.	2	-6	1.3	-1.2	3.4
Cc1nc(C)c(-c2ccc(SCC(=O)Nc3ccc(F)cc3F)nn2)s1	-6	4.2	-23%	-4	-10	0.1	0.7	-0.7
Cc1ccc(-n2[nH]c(C)c(/C=N/NC(=O)c3ccc(O)cc3O)c2=O)cc1	37	0.8	7%	73	-8	-7.0	.	1.9
O=C(C1CCCN(Cc2ccc(Cl)cc2)C1)N1CCCCC1 (stereo not drawn)	0	-1.7	-2%	1	57*	1.9	-3.9	-6.2
